A647 autofl: compound autofluorescence in A647 spectral region; Compound fluorescence, A647 channel (570/671 nm), Tris buffer; max dye-equivalent concentration, M; 59,000 tested, under 10 active; AID 592; active means above 1 µM dye equivalent; inconclusive means 0.1 to 1 µM; inactive means 0.1 µM or less;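 also: values scaled relative to a standard on each plate; highest value over a series up to 38 µM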
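Tris 100 mM pH 8.0; cpd + A647 stds pin-transferred; 15 min RT; CCD imager, ex 570/em 671. Output = A647-equivalent conc. per cpd conc.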
TSHR ag: agonists of human thyroid stimulating hormone receptor. HEK293-CNG-TSHR cells (CNG channel as cAMP sensor), membrane potential dye, cAMP. Potency, µM (highest dose often 57.1 µM), for the others: top-dose activation, actives largely listed as activators. hit rate 0.48% among 73,000; active = well fitted activation curve of enough size with the parental cells flat; inconclusive = any curve in the parental cells; inactive = parental cells flat and receptor cells flat or falling; also: potency is read from the fitted curve at half-maximal effect; % of control where 0% means no effect; weak receptor curves with flat parental cells got no call and are not listed
Target sequence (P16473 whole entry, looked up): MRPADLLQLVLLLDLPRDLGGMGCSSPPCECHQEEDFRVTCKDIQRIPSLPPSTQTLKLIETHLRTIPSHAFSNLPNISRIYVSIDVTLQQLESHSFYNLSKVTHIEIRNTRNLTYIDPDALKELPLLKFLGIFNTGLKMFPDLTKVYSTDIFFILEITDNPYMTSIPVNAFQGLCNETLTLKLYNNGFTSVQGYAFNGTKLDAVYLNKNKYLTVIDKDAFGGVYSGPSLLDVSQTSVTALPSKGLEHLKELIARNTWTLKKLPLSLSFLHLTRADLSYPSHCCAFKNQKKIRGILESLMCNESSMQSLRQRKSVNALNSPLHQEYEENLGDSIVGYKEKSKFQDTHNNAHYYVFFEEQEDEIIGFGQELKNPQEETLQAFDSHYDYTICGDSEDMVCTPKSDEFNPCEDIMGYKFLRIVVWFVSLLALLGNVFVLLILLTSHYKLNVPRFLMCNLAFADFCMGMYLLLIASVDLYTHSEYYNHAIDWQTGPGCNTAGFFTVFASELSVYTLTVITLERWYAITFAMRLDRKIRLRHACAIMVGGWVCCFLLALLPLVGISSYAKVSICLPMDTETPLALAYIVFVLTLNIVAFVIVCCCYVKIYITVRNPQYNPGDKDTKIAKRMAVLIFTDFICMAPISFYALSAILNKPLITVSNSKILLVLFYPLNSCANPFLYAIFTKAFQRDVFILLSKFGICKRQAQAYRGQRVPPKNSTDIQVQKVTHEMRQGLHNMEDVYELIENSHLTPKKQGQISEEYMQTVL
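HEK 293 cells stably expressing TSHR and a cAMP-gated CNG channel; parental CNG-only cells as counterscreen. Cells preloaded 60 min with membrane potential dye plus 100 uM RO 20-1724, then compound 30 min; fluorescence read at 590 nm.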
AID923: qHTS Assay for Allosteric/Competitive Inhibitors of Caspase-1: Spectroscopic Profiling in AFC Spectral Region. hit rate 1.1% among 75,000. Potency, µM (doses to about 57.5 µM), inactives show top-dose fluorescence increase, actives largely listed as activators. compound fluorescence, AFC spectral region (405/520 nm); almost no hit is shown here; active = well fitted activation curve with a large enough effect; inconclusive = small, poorly fitted or top-dose-only effect;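 also: potency is read from the fitted curve at half-maximal effect; 0% is about no effect; scaled to a free AFC standard on each plate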
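Titrations up to 57 uM read every 20 sec for 3 min (405/520 nm) with 50 nM caspase 1 and 5 uM Ac-WEHD-AFC, pH 7.5 HEPES buffer. Fluorescence-vs-time intercept gave baseline, scaled against on-plate AFC standard.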
Resorufin fluor: resorufin region autofluorescence; Compound fluorescence, resorufin region 547/598 nm, buffer; active compounds read high; max dye-equivalent concentration, M; hit rate 0.04% among 59,000; active = above 10 nM dye equivalent; inconclusive = 1 to 10 nM; inactive = 1 nM or less; a few of its hits are not listed in these tables; also: highest value over a series up to 38 µM
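Intrinsic fluorescence profiled in the resorufin window (ex 547 nm, em 598 nm) after 15 min at room temperature in pH 8.0 Tris buffer (100 mM); responses normalized against a six-point resorufin standard series as dye-equivalent concentration.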
A488 fluor: compound fluoresces in the A488 spectral region | compound autofluorescence, A488 spectral region, dye equivalency; active compounds read high | max dye equivalency, M | hit rate 0.1% among 59,000 | AID 591; active = above 10 nM dye equivalent; inconclusive = 1 to 10 nM; inactive = 1 nM or less; about half of its hits are not listed in these tables;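 also: highest value over a series up to 38 µM; compound alone in buffer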
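Autofluorescence read at ex 480/em 540 nm after 15 min RT in 100 mM Tris pH 8.0; compound signal normalized to A488 standard series on each plate, reported as dye-equivalent concentration at each test concentration.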
* hit, by the source's call; i = inactive; ? = inconclusive; . = not tested or not shown; & = joins results of further samples; [ ] = remark or other dose.

SMILES	A647 autofl	TSHR ag	AID923	Resorufin fluor	A488 fluor
COC(=O)[C@@]1(Cc2ccc(F)cc2)[C@H]2c3cc(C(=O)N4CCCC4)n(Cc4ccc(OC(F)(F)F)cc4)c3C[C@H]2CN1C(=O)c1ccccc1	.	?	2.4%	.	.
CCCCCCOC(=O)C(C#N)c1nc2ccccc2nc1N1CCN(C)CC1 (configuration not stated)	7.6e-09	?	13.6%	i	i
COc1ccc(-c2nn3c(-c4ccco4)nnc3s2)cc1OC	1e-09	2.5%	-0.2%	i	i
O=C(NCc1cccs1)c1cnc2ccccn2c1=O	.	1.4%	3.7%	.	.
O=C(O)C1C(c2ccccc2)C(C(=O)OCCCO)C1c1ccccc1 (configuration not stated)	8.3e-09	-1.4%	0.6%	i	i
CCOC(=O)c1ccc(NC(=O)N2CCN(Cc3cccc(F)c3)CC2)cc1	3.93e-08	-9.5%	-2.8%	i	i
CCN(CC)C(=O)CSc1nnc2sc3ccccc3n12	1e-09	-1.7%	-3.0%	i	i
CS(=O)(=O)c1ccc(N)cc1	.	5.9%	-0.8%	.	.
CS(=O)(=O)N(CC(=O)NCC1CCCO1)c1cc(Cl)cc(Cl)c1 (configuration not stated)	2.63e-08	-1.3%	0.1%	i	i
COc1ccccc1NC(=O)CN1C(=O)C(C)Oc2ccccc21 (configuration not stated)	1.65e-08	?	1.6%	i	i
COc1ccc(-c2cn3cccnc3n2)cc1NC(=O)C1CC1	2.66e-08	3.1%	2.3%	i	i
Cc1nn(CC(N)=O)c(=O)c2ccccc12	2.2e-09	.	.	i	i
COc1ccccc1N1CCN(c2nc(-c3ccccc3)cc(C(F)(F)F)n2)CC1	4.15e-08	-2.6%[11.4 µM]	0.8%	i	i
COc1ccc(CCNS(=O)(=O)c2ccc(C(=O)NCc3ccco3)cc2)cc1OC	2.89e-08	-2.6%	-1.3%	i	i
Cc1nc(N(C)C)c2sc(=S)n(C)c2n1	.	6.1%	1.4%	.	.
c1ccc2c(-c3nc(C4CCCCC4)no3)cc(-c3ccncc3)nc2c1	1.72e-08	3.5%	-0.7%	i	i
COc1ccc(-c2nc(CS(=O)(=O)CC(=O)NCCc3cc(OC)ccc3OC)c(C)o2)cc1	3.4e-09	?	-0.7%	i	i
Cn1c(=O)cnc2cnc(Oc3ccccc3)nc21	2.5e-09	-3.6%	-0.2%	i	i
CS(=O)(=O)c1ccc2nc(NC(=O)Oc3ccccc3)sc2c1	1.74e-08	-2.3%	0.8%	i	i
O=C1CS/C(=N\C(=O)N2c3ccccc3Sc3ccccc32)N1	.	-7.5%[11.4 µM]	0.5%	.	.

Molecules above with a CF3 group (2):
SMILES	A647 autofl	TSHR ag	AID923	Resorufin fluor	A488 fluor
COC(=O)[C@@]1(Cc2ccc(F)cc2)[C@H]2c3cc(C(=O)N4CCCC4)n(Cc4ccc(OC(F)(F)F)cc4)c3C[C@H]2CN1C(=O)c1ccccc1	.	?	2.4%	.	.
COc1ccccc1N1CCN(c2nc(-c3ccccc3)cc(C(F)(F)F)n2)CC1	4.15e-08	-2.6%[11.4 µM]	0.8%	i	i

Next section.
SMILES	A647 autofl	TSHR ag	AID923	Resorufin fluor	A488 fluor
CSC(N)=NCCC[C@@H](N)C(=O)O	1.87e-08	8.3%	-2.8%	i	i
Cc1ccccc1-c1cncnc1N1CCN(C)CC1	3.06e-08	5.7%	1.6%	i	i
CCC12CC3CC(C1)CC(C(=O)O)(C3)C2	.	-1.5%[11.4 µM]	0.1%	.	.
CCc1c(C)nc2[nH]nc(-c3ccccc3C)n2c1=O	1.77e-08	0.7%	0.4%	i	i
CCOC(=O)c1c(C)[nH]c(C)c1C(=O)COC(=O)C1CCCN1S(=O)(=O)c1ccccc1F (configuration not stated)	1.35e-08	-44.4%[inhibitor]	-0.1%	i	i
O=C1CCCN1C(=O)CCC(=O)N1CCCC1=O	6.1e-09	-0.4%	-0.6%	i	i
Cc1onc(-c2ccccc2Cl)c1C(=O)Nc1cccc(-c2nc3ncccn3c2C)c1	3.51e-08	.	6.1%	i	i
Cn1c(COc2ccccc2)nnc1SCCN1CCOCC1	2.4e-09	-2.0%	-1.8%	i	i
O=C(NCCN1CCOCC1)c1ccc(CS(=O)(=O)c2c(Cl)cccc2Cl)o1	.	-2.3%	-1.7%	.	.
CCNC(=O)c1c(O)c2ccccc2[nH]c1=O	.	2.8%	1.0%	.	.
Cc1ccc(Cn2c(=N)n(CC(O)c3ccco3)c3ccccc32)cc1 (configuration not stated)	1.7e-08	11.0%	-1.1%	i	i
CCOc1ccc(C(CC(=O)O)NC(=O)COc2ccccc2)cc1 (configuration not stated)	7.5e-09	19.5%	1.4%	i	i
CCn1c(SCC(=O)OC)nc2sc3c(c2c1=O)CCC3	.	25.4%	-0.2%	.	.
Cc1cc(=O)[nH]c(SCC(=O)NCc2ccco2)n1	2.9e-09	2.5%	-1.8%	i	i
O=C(C1CCCN(Cc2cccnc2)C1)N1CCCCC1 (configuration not stated)	5e-09	0.8%	0.3%	i	i
COc1cc(OC)c(C#N)c(S(=O)Cc2ccccc2)c1 (configuration not stated)	1.77e-08	4.9%[11.4 µM]	0.5%	i	i
c1nc2sc3c(c2c2nnnn12)CCC3	.	?	-0.4%	.	.
Fc1cc(F)c2nc(N3CCCCC3)sc2c1	4.72e-08	9.1%	-0.7%	i	i
Cn1c(/C(C#N)=C/Nc2ccccn2)nc2ccccc21	8.4e-09	.	.	i	i
COc1ccc(CNC(=O)c2cc(-c3ccccc3OC)on2)cc1	1e-09	6.5%[11.4 µM]	-1.5%	i	i
On1cnnc1-c1ccccc1	2.6e-09	-4.3%	2.2%	i	i
CCOc1ccccc1Nc1nnc(C)c(=O)[nH]1	1.54e-08	-3.1%	1.4%	i	i
CCOc1ncccc1C(=O)Nc1ccc(Cl)cc1	3.3e-09	?	-0.2%	i	i
O=c1c2[nH]c3ccc(Br)cc3c2ncn1CCCn1ccnc1	1e-09	-14.7%	1.1%	i	i
COc1cc(C(=O)N2CCC(n3cnc4cc(F)ccc43)CC2)cc(OC)c1OC	1e-09	5.6%	-1.7%	i	i
CSCCC1NC2(C(=O)Nc3ccc(Cl)cc32)[C@@H]2C(=O)N(C3CCCC3)C(=O)[C@H]12 (some centres not stated)	1.41e-08	-34.4%[inhibitor]	-2.2%	i	i
Nc1nc(C(=O)O)c(N=Nc2ccccc2)c(=O)[nH]1	1e-09	1.5%[11.4 µM]	0.8%[11.5 µM]	i	i
CSc1nsc(NC(=O)Cc2ccccc2)n1	2.14e-08	?	-3.4%	i	i
CCN1C(=O)CSc2ccc(C(=O)NC3CCCCC3)cc21	1.04e-08	?	-0.4%	i	i
c1coc(CNc2ncnc3ccccc23)c1	1e-09	.	.	i	i
Cc1ccc2[nH]c(=O)c(CN(Cc3ccc4c(c3)OCO4)Cc3nnnn3Cc3ccco3)cc2c1	1.95e-08	?	4.7%	i	i
c1ccc(COc2ccc(Oc3nc(N4CCCCC4)nc(N4CCOCC4)n3)nn2)cc1	1e-09	-4.6%	-2.7%	i	i
CCOc1ccc2nc(NC(=O)c3ccc(S(=O)(=O)N4CCOCC4)cc3)sc2c1	3.2e-08	-6.0%[11.4 µM]	-0.7%	i	i
CC(=O)OC1c2c(ccc3ccc(=O)oc23)OC(C)(C)C1OC(=O)CC(C)C (configuration not stated)	.	?	-3.8%&0.6%	.	.
CC1=CC2(C#N)C3(N=C(N)C2(C#N)C(c2ccccc2)N1)OCCO3 (configuration not stated)	4.71e-08	0.5%	8.9%	i	i
CS(=O)(=O)N1CCN(c2ccccc2NC(=O)c2ccc(-c3ccc(Cl)cc3Cl)o2)CC1	2.76e-08	.	0.9%	i	i
CCCOc1ccc(C(=O)CCN2CCCCC2)cc1	1e-09	?	2.4%	i	i
CCc1ccc(NC(=O)CSc2nc3c(c(=O)n(C)c(=O)n3C)n2C)cc1	.	-11.6%	-0.3%	.	.
CN(c1ccccc1)c1ccc(/C=c2\s/c(=C(/C#N)C(=O)C(C)(C)C)n(Cc3ccco3)c2=O)cc1	5.5e-09	-4.3%	-0.6%	2.68e-08M*	i
Cc1ccc(C(=O)Nc2c(C(=O)N3CCOCC3)cnn2-c2ccccc2)cc1	.	2.9%[11.4 µM]	-1.2%	.	.
Cc1ccc2cc(CN(Cc3ccc(F)cc3)Cc3nnnn3C3CCCC3)c(=O)[nH]c2c1	1.28e-08	?	-1.4%	i	i
O=C1OC(=O)c2cc([N+](=O)[O-])ccc21	.	1.8%	1.4%	.	.
COc1cccc(NC(=O)N[C@@H](Cc2ccccc2)C(=O)O)c1	3.1e-09	24.3%	-0.5%	i	i
Cc1noc(C)c1-c1cncnc1NCc1ccccc1	1.02e-08	5.5%	1.5%	i	i
CC1Cc2ccccc2N1C1=NS(=O)(=O)c2ccccc21 (configuration not stated)	1e-09	10.0%	-0.1%	i	i
CCN1CCN(C(=O)c2cc3c(-c4ccc(Cl)cc4)nn(C)c3s2)CC1	.	24.5%	2.0%	.	.
O=C(O)c1cccc(N2CCCCS2(=O)=O)c1	2.71e-08	1.2%	-0.4%	i	i
CCCOc1ccc(N2C(=O)CC(N(CCC)C(=O)CCC(=O)O)C2=O)cc1 (configuration not stated)	3.17e-08	.	.	i	i
CCOC(=O)OCC1OC(C#Cc2ccccc2)C=CC1Oc1cccc(N(C)C)c1 (configuration not stated)	.	17.1%[11.4 µM]	-5.5%[11.5 µM]	.	.
Cc1ccc(-n2c(SCC(=O)Nc3ccc4c(c3)OCO4)nnc2-c2ccoc2C)cc1	1e-09	18.2%	-1.3%	i	i
O=C(CC(C(=O)N1CCc2ccccc21)n1ccnc1)NCc1cccnc1 (configuration not stated)	4.7e-09	-5.1%	0.0%	i	i
COc1ccc(N(Cc2cc3ccccc3[nH]c2=O)C(=O)C2CCCO2)cc1 (configuration not stated)	3e-09	27.2%	3.0%	i	i
O=C(CSc1ccc(Cl)cc1)Nc1ccc(N2CCN(C(=O)c3ccco3)CC2)cc1	1e-09	-11.7%	0.8%	i	i
COc1cc(NC(=O)c2csc3c2CCCC3)ncn1	1.78e-08	.	-0.1%	i	i
N#CC1=C(N)N2C(=C(C#N)C13CCN(Cc1ccccc1)CC3)Nc1ccccc12	2.71e-08	7.5%	10.3%	i	i
CCN(CC(=O)NC1CCS(=O)(=O)C1)C(=O)C(c1ccccc1)c1ccccc1 (configuration not stated)	1e-09	7.5%	2.3%	i	i
CC(C)=CCc1c(O)cc(O)c2c1O[C@H](c1ccccc1)CC2=O	1.2e-08	12.5%	-1.7%	i	i
Cc1ccc(-c2cc(-c3ccc(C)o3)nc(N)c2C#N)cc1	1e-09	14.9%	2.2%	i	i
CC(C)C1Cc2[nH]c(=O)c(C(=O)O)cc2CO1 (configuration not stated)	1.22e-08	14.0%	0.4%	i	i
NC(=S)c1ccc[n+]([C@@H]2O[C@@H](COP(=O)([O-])OP(=O)(O)OC[C@@H]3O[C@@H](n4cnc5c(N)ncnc54)[C@@H](OP(=O)(O)O)[C@H]3O)[C@@H](O)[C@H]2O)c1	3.78e-08	?	-3.6%	i	i

A second format for some results above.
Second line of a record: A647 autofl	TSHR ag	AID923	Resorufin fluor	A488 fluor
> COc1ccccc1NC(=O)CN1C(=O)C(C)Oc2ccccc21 (configuration not stated)
  1.65e-08	?	1.6%	i	i
> COc1ccc(-c2cn3cccnc3n2)cc1NC(=O)C1CC1
  2.66e-08	3.1%	2.3%	i	i
> Cc1nn(CC(N)=O)c(=O)c2ccccc12
  2.2e-09	.	.	i	i

More entries
SMILES	A647 autofl	TSHR ag	AID923	Resorufin fluor	A488 fluor
O=S1(=O)N=C2CCCN2C(c2ccc(F)cc2)N1 (configuration not stated)	3.7e-09	1.8%	-1.8%	i	i
COCCNC(C)C(=O)Nc1ccc(Br)cc1 (configuration not stated)	1e-09	7.9%	-3.1%	i	i
O=C1c2ccccc2C(=O)N1c1cccc(-c2nc3ccccc3o2)c1	.	4.5%	-0.9%	.	.
CCN(CC)S(=O)(=O)c1ccc(NC2c3ccccc3C(=O)N2Cc2ccc3c(c2)OCO3)cc1 (configuration not stated)	.	?	-0.1%	.	.

High-throughput results from PubChem BioAssay.

Not all compounds are listed; count on the stated rates, not on these rows.
